# Calb biofilm kill: clotrimazole potentiators killing C. albicans biofilm, primary screen, 4-compound mixtures; C. albicans biofilm persisters + clotrimazole, fluorescence viability; primary screen in compound mixtures of four per well; inhibition, % at 7.6 µM; 0.02% of 120,000 active; AID 1242, 2008;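 active = inhibition above 30.3% in the primary screen of four-compound pools, then above 30% when the compound was retested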;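 note: compounds exposed to preformed 24 h biofilms for 48 h; the number belongs to the whole pool; some results filed as inactive read as strong as hits; inactives centre near 12; 0% = biofilm with clotrimazole alone and 100% = kill control; retested singly at about 60 µM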
#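 Test system: C. albicans CAF4-2 wild-type biofilms; buffer or medium: RPMI/MOPS medium, pH 7.0; schedule: 24 h biofilm formation, then 48 h compound exposure, 37 °C; detection: Alamar Blue fluorescence; measure: percent inhibition of biofilm viability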
# Starred values were filed as active, the others as inactive. The list is partial. The share of hits here may be higher or lower than overall.
SMILES,Calb biofilm kill
COc1nccnc1NS(=O)(=O)c1ccc(NC(=S)NC(=O)/C=C/c2ccc(F)cc2)cc1,8
COc1ccc(CC(=O)NC(C)c2nnc(SCC(=O)Nc3ccccc3F)n2C)cc1 (centres undefined),13
Cc1ccc2ncnc(Oc3ncccc3[N+](=O)[O-])c2c1,-6
Cc1oc2ccc(NS(=O)(=O)c3cccc4cccnc34)cc2c1C(=O)OC(C)C,10
COc1ccc(OC(=O)CCc2c[nH]c3ccccc23)cc1,7
CCOC(=O)CNC(=O)CNC(=O)c1nn(-c2ccc(OC)c(Cl)c2)c(=O)c2ccccc12,17
COc1ccc(CC(=O)Nc2cccc(-c3ccc4nncn4n3)c2)cc1OC,21
CCN(CC)C(=O)CNC(=S)N(CCCN1CCOCC1)Cc1cccs1,0
O=C1c2ccccc2-c2nnc(-c3ccc(F)cc3)cc21,0
O=S(=O)(c1ccccc1Cl)N1CCC(O)(c2cccnc2)CC1,27
O=C(Nc1cccc(Cl)c1)Nn1cnnc1,19
O=C(CC(=O)N/N=C/c1ccc(F)cc1)N/N=C/c1ccc(F)cc1,23
COc1ccc(CCN=C(NS(=O)(=O)c2ccc(Cl)cc2)c2ccccc2)cc1,13
CCCCCCN1CC(C(=O)OCC)C(=O)C1=O (centres undefined),10
N#CC1=C(N)C(C#N)(C#N)C(c2cccnc2)C2CN(C(=O)OCc3ccccc3)CC=C12 (centres undefined),7

# The last 5 compounds of the part above lead into the next.
SMILES,Calb biofilm kill
O=C(Nc1cccc(Cl)c1)Nn1cnnc1,19
O=C(CC(=O)N/N=C/c1ccc(F)cc1)N/N=C/c1ccc(F)cc1,23
COc1ccc(CCN=C(NS(=O)(=O)c2ccc(Cl)cc2)c2ccccc2)cc1,13
CCCCCCN1CC(C(=O)OCC)C(=O)C1=O (centres undefined),10
N#CC1=C(N)C(C#N)(C#N)C(c2cccnc2)C2CN(C(=O)OCc3ccccc3)CC=C12 (centres undefined),7
CC1CC(C)(C)NC(=S)N1CCC(=O)N1CCc2ccccc21 (centres undefined),19
Cc1nc(C)c(C(=O)O)s1,13
Cc1nc2c(ccc3nc(NC(=O)C(c4ccccc4)c4ccccc4)sc32)s1,14
O=C(NNS(=O)(=O)c1ccc(Br)cc1)c1sccc1-n1cccc1,6
COc1ccccc1CC(=O)NC1CCCc2ccccc21 (centres undefined),14
Cc1cc(C(=O)COc2ccc(C#N)cc2)c(C)n1-c1ccc2c(c1)OCO2,11
CC1CCN(CCC(=O)Nc2ccc3c(c2)OCCO3)CC1,12
O=C(O)c1ccccc1CSc1ncccc1C(=O)O,10
Cc1ccc(NC(=O)OCc2cncs2)cc1,10
COc1ccc(OC)c2c(C)c(C)[nH]c12,6
CCCCCCCCCC[n+]1cccc2c3ccccc3ccc21,9
COc1cc(NC(=O)Nc2ccc(Cl)c(Cl)c2)c(C(=O)O)cc1OC,19
O=C(CSc1nc2ccccc2c(=O)n1Cc1ccc(Cl)cc1)NCc1cccs1,-3
NCCSC1CC(=O)N(Cc2ccc(F)cc2)C1=O (centres undefined),5
CCSC1=NCCN1S(=O)(=O)c1ccccc1,-6
COc1ccc(-c2cn(-c3ccc(OC)cc3)c3[n+]2-c2ccccc2CC3)cc1,22
CCCn1c(C)cc(C(=O)COC(=O)c2nccnc2N)c1C,5
CN1CCN(C(=O)Nc2ccc3c(c2)N(C)C(=O)c2ccccc2S3)CC1,14
CSCCC(NC(=O)C1CCC(C)CC1)C(=O)OCC(=O)c1ccc(Cl)cc1 (centres undefined),12
CSc1nsc(SC)c1C(=O)N1CCN(S(=O)(=O)c2ccc(C)cc2)C1C(C)C (centres undefined),9
COc1ccc(/C=C/C(=O)Nc2ccc(OC)nc2)cc1,16
OC1(c2ccc(F)cc2)CSC(=Nc2cccnc2)N1Cc1ccco1 (centres undefined),9
O=C(CC1C(=O)NCCN1Cc1ccoc1)NCCc1ccc(Cl)cc1 (centres undefined),21
CC(C(=O)NCCN1CCOCC1)(c1ccccc1)c1ccccc1,3
CC(C)(C)c1ccc(C(=O)NNC(=S)NCc2ccco2)cc1,23
COc1ccc(C(CCN2CCOCC2)c2c(O)cc(OC)cc2OC)cc1 (centres undefined),17
Cc1csc(SCC(=O)NC(=O)Cc2ccccc2)n1,17
Cc1ccc2c(Cl)cc(Cl)c(OCC(=O)NC(C)(C)C)c2n1,2
CC(C)=CC(=O)Nc1ccc(Cl)cc1,13
CC1CCN(CCCCOc2cccc(Br)c2)CC1,12
N#C/C(=C\c1ccc(-c2ccc(F)cc2)o1)C(=O)Nc1nc(-c2cccs2)cs1,-1
CC(C)(/C=N/O)N(O)C=C1C=CC(=O)C=C1,-1
COc1cc(/C=N/O)cc(Cl)c1OC,9
CCCCn1c(N)c(N(CC)C(=O)/C=C/c2ccco2)c(=O)[nH]c1=O,12
CC(=O)Oc1ccc(C(=O)[C@H]2[C@H]3C(=O)N(c4cccc5ccccc45)C(=O)[C@H]3[C@@H]3C=CC=NN32)cc1,5
COc1ccc(N2C3=C(C(=O)CC(C)(C)C3)C(c3ccccc3OC)C3=C2CC(C)(C)CC3=O)cc1,25
Cc1ccc2cc(/C=N/NC(=O)[C@H]3C[C@@H]3c3ccccc3)c(Cl)nc2c1,18
CC1CN(S(=O)(=O)c2ccccc2)C(C)CN1S(=O)(=O)c1ccccc1 (centres undefined),12
CCN(CC)c1ncnnc1-c1ccccc1,4
CC(C)CN(C(=O)CSc1nnc(-c2ccco2)o1)c1c(N)n(Cc2ccccc2)c(=O)[nH]c1=O,9
COc1ccc(Br)cc1C(=O)NC(=S)Nc1ccc(Cl)c(C(=O)O)c1,18
COC(=O)c1ccc(C)c(NC(=O)CCc2ccc(OC)c(OC)c2)c1,15
CCCC(=O)Nc1cccc(-c2nc3ccccc3c(=O)o2)c1,24
CC(=O)c1ccccc1C(=O)NCc1cccnc1,17
NC(=O)CC(NC(=O)Cc1ccc(Br)cc1)c1ccc(NCCc2ccc(F)cc2)c([N+](=O)[O-])c1 (centres undefined),6
CNc1ccccc1C(C)(C)c1cc(-c2cccc(Br)c2)no1,14
COc1ccccc1-n1cc(C(=O)c2cc(Cl)ccc2O)cc(C#N)c1=O,6
O=C(Nc1ccc(N2CCOCC2)cc1)c1ccc2c(c1)OCO2,21
CC(=O)NC1=NN(C(C)=O)C2(CCCC2)S1,6
COc1ccc(CN(C)Cc2nc3scc(-c4ccccc4)c3c(=O)[nH]2)cc1OC,13
Cc1cccc(NC(=O)c2cc([N+](=O)[O-])ccc2NCC2CCCO2)n1 (centres undefined),2
COc1ccc(C)cc1S(=O)(=O)Nc1cc(Cl)ccc1Cl,16
CN(C)CCCNC(=O)c1cc(Br)ccc1O,44
O=C(NCc1csc2ccccc12)Nc1cc(Cl)cc(Cl)c1,21
COCCCNCC(O)C(F)(F)F (centres undefined),-4
COc1cccc([C@@H]2Oc3ccc(Br)cc3C(=O)[C@H]2OC(=O)NC2CCCC2)c1,16
CC(=O)Nc1cccc(NC(=S)Nc2cccc(Cl)c2C)c1,2
COC(=O)/C(C#N)=C/c1ccc(C)o1,15
FC(F)(F)c1cnc(C(c2ccccc2)c2ncn[nH]2)c(Cl)c1 (centres undefined),16
Cc1ccc(C)c(N2C(=N)S/C(=C\c3ccc(-c4ccccc4C(=O)O)o3)C2=O)c1,11

# Ordered by formula weight (smallest number first): some entries from above
SMILES,Calb biofilm kill
O=C(Nc1ccc(N2CCOCC2)cc1)c1ccc2c(c1)OCO2,21
Cc1cccc(NC(=O)c2cc([N+](=O)[O-])ccc2NCC2CCCO2)n1 (centres undefined),2
COc1cccc([C@@H]2Oc3ccc(Br)cc3C(=O)[C@H]2OC(=O)NC2CCCC2)c1,16

# Random excerpt: two records from the list.
SMILES,Calb biofilm kill
CC(=O)c1ccccc1C(=O)NCc1cccnc1,17
CCCn1c(C)cc(C(=O)COC(=O)c2nccnc2N)c1C,5

# Next entries
SMILES,Calb biofilm kill
Cc1cc(C=O)c(C)n1-c1ccc(Oc2ccc([N+](=O)[O-])cn2)cc1,2
S=C(NCc1ccccn1)Nc1ccccc1,19
Cn1cccc1CC(=O)N/N=C/C(Cl)=C/c1ccccc1,24
COc1cccc(NC(=S)N2CCN(c3ccccn3)CC2)c1,4
Cc1cccc(Nc2nc(N)c([N+](=O)[O-])c(N3CCN(C)CC3)n2)c1,16
O=C(Nc1nc2ccc(S(=O)(=O)N3CCCC3)cc2s1)c1ccco1,12
O=C(NCc1ccco1)c1cc(NS(=O)(=O)c2cccc([N+](=O)[O-])c2)ccc1O,5
CC(=O)N1CCN(Cc2nc3scc(-c4ccccc4)c3c(=O)[nH]2)CC1,3
CCOc1ccccc1/C=N/NC(=O)CNC(=O)c1cccs1,14
O=C(O)c1cc([N+](=O)[O-])ccc1Nc1ccccc1,15
Cc1cc(Br)ccc1OCC(=O)NNC(=O)C(=O)Nc1ccccc1,26
CCO[C@H]1OC(C(=O)Nc2ccccc2)=C[C@@H](c2ccc(C(F)(F)F)cc2)[C@@H]1CCCO,19
O=C1CCC([N+](=O)[O-])C(c2ccc3c(c2)OCO3)N1 (centres undefined),27
Cc1ccccc1OCC(=O)N/N=C/c1ccc([N+](=O)[O-])o1,18
NC(=S)Nc1ccc2c(c1)OCO2,12
COc1ccc(C(=O)N(C)c2c(C)n(C)n(-c3ccccc3)c2=O)cc1OC,4
COc1ccc(CSc2ncn[nH]2)cc1[N+](=O)[O-],8
COc1ccccc1N1CCN(c2ccc(Cl)nn2)CC1,-18
CN(C)C(=O)c1c(NC(=O)c2ccco2)sc2c1CCCCC2,12
O=C(CSc1nn(-c2ccccc2)c(=S)s1)NC1CCS(=O)(=O)C1 (centres undefined),-7
CN1CCN(/N=C/c2c3ccccc3c(Cl)c3ccccc23)CC1,0
O=C(NC(=S)Nc1ccccc1[N+](=O)[O-])c1ccco1,19
Cc1ccc(OCC(=O)NNC(=O)CSc2ncc(C#N)c(N)n2)cc1,14
CCN(C(=O)c1cnc(NC(C)C)cc1C(F)(F)F)c1ccc(Cl)cc1Cl,16
O=C(Cc1nnc(NC(=O)c2ccccc2)s1)N/N=C/c1ccco1,-9
O=C(COc1cccnc1[N+](=O)[O-])Nc1ccc(S(=O)(=O)N2CCOCC2)cc1,9
CC(=O)N1c2ccc(Cl)cc2C2C=CCC2C1c1cccc2ccccc12 (centres undefined),16
CCC1(c2ccc(Cl)cc2)NC(=S)N(c2ccc(C)c(C)c2)N1 (centres undefined),25
Cc1c(NC(=O)C(C)n2cc([N+](=O)[O-])cn2)c(=O)n(-c2ccccc2)n1C (centres undefined),16
O=C(Nc1ccc(S(=O)(=O)N2CCOCC2)cc1)c1ccc([N+](=O)[O-])o1,24
CC1=CC=CN2C1=NC(=O)CC2(C)C(=O)N(CC(=O)NC1CCCC1)c1cc(C)cc(C)c1 (centres undefined),12
CS(=O)(=O)N(CC(=O)NCCSC1CCCCC1)c1cccc(F)c1,9
CCc1ccc(OCC(=O)NC(NC(=S)Nc2ccccc2C)C(Cl)(Cl)Cl)cc1 (centres undefined),24
COc1ccccc1-n1c(CNC(=O)c2cccs2)n[nH]c1=S,14
CC1CCCCC1NC(=O)COC(=O)c1ccc2c(c1Cl)C(=O)c1ccccc1C2=O (centres undefined),19
C=CCNC(=S)NNC(=O)c1ccc(=O)n(Cc2ccc(Cl)cc2Cl)c1,14
CCCCNCCOCCOc1ccccc1-c1ccccc1,20
O=C(Nc1ccccc1)Nc1nc(-c2ccc(Cl)cc2)cs1,28
CC(NC(=O)c1ccccc1F)c1nnc(SCC(=O)N2CCN(c3ccccc3)CC2)n1C (centres undefined),8
O=C(N/C(=C/C=C/c1ccccc1)C(=O)N1CCCCC1)c1ccc([N+](=O)[O-])cc1,14
COc1ccc(-n2c(=O)c3c4c(sc3n(CC(=O)NC3CCCC3)c2=O)CCCC4)c(OC)c1,24
COc1ccc(OC)c(NC(=S)N(CCc2c(C)[nH]c3ccc(C)cc23)Cc2cccs2)c1,13
CCOC(=O)c1c(C)nc2c(c1-c1cc(OC)ccc1OC)C(=O)CC(C)(C)C2,13
Cc1ccc(C(=O)NNC(=O)c2cccnc2SCc2cccc([N+](=O)[O-])c2)cc1,5
CC1(C)SCC(C(=O)O)NC1=O (centres undefined),12
CC(=O)Nc1ccc(NC(=O)/C=C/c2ccc(Cl)cc2)cc1,29
C/C(=N\Nc1nc(N2CCCCCC2)nc(N2CCCCCC2)n1)c1ccccc1,4
COc1ccc(OCC(=O)Nc2cc(-c3nn(C)c(=O)c4ccccc34)ccc2N2CCOCC2)cc1,16
CC(Cc1ccccc1)C(=O)NCc1ccncc1 (centres undefined),6
CC(NC(=O)CN1CCN(Cc2ccc(Cl)cc2)C1=O)c1ccc2c(c1)OCCO2 (centres undefined),16
O=C(O)/C=C\C(=O)NCc1cccnc1,-8
Cc1cccc(N=Cc2[nH]c3ccc(Br)c(Cl)c3c2O)c1,5
COc1ccc(-c2cc(C(=O)NNC3=NCCC3)c3c(C)nn(-c4ccccc4)c3n2)cc1,8
Cn1c(=O)n(C)c2cc([N+](=O)[O-])c(N3CCN(S(=O)(=O)c4ccccc4)CC3)cc21,20
CCN(CC)S(=O)(=O)c1ccc(N2CCOCC2)c(NS(=O)(=O)c2ccc(C)cc2)c1,20
Cc1c2cnn(CC(=O)Nc3cccc(C(F)(F)F)c3)c(=O)c2c(C)n1Cc1ccccc1F,-14

# Screening data (PubChem BioAssay)
